# Source: PubChem
# hNpr1 antagonist: antagonists of human natriuretic peptide receptor Npr1. P16066. HEK293 hNpr1 GloSensor cGMP, ANP-stimulated luminescence. Potency, µM (titrated, usually from 46.3 µM), for inactives: at the highest dose activity change, negative = inhibition, actives largely listed as inhibitors. 1.6% of 76,000 active; active = well fitted inhibition curve with a large enough effect; inconclusive = small, poorly fitted or top-dose-only effect; inactive = no such curve, though single readings can be large or run the other way;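 also: nearly all actives have a fitted effect of over 60% in size; nearly all hits also lower the signal before the agonist is added; a reference antagonist and vehicle were the controls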
# Target sequence (P16066 whole entry, looked up): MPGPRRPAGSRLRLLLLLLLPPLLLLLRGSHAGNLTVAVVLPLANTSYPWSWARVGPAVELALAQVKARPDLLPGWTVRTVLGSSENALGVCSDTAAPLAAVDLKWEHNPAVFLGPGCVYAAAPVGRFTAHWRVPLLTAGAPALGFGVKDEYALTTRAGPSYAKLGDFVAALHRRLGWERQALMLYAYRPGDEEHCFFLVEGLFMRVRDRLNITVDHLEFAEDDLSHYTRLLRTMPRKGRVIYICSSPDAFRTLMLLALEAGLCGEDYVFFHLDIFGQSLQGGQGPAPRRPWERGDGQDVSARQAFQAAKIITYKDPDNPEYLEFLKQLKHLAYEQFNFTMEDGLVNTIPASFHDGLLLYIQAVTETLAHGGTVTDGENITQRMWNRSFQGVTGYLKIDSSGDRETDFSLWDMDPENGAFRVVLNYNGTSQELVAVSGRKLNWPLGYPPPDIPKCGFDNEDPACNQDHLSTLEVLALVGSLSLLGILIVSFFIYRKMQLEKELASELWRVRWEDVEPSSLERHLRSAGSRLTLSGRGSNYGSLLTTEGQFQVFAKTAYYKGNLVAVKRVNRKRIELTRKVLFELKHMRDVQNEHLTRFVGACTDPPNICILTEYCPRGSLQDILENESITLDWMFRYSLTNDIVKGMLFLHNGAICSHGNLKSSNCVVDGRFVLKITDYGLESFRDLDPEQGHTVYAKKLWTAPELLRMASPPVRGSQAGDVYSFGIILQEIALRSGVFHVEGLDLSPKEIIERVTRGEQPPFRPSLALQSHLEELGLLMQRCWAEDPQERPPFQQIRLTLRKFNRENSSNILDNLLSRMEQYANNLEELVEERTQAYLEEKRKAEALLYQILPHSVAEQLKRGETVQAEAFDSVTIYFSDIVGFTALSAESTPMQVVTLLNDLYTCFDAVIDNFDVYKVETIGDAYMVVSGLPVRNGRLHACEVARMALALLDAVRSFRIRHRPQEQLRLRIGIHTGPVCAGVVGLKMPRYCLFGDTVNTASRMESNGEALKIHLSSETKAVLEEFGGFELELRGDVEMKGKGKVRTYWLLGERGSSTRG
#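 HEK293 cells stably expressing human Npr1 and cGMP GloSensor pGS-40F, loaded 2 h with 2% GloSensor reagent, given compound 30 min at room temperature. Luminescence read before and 20 min after 0.1 nM hNppA.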
# * hit, by the source's call; ? = inconclusive; [ ] = dose if it differs, or a comment. % is scaled to controls: 0 for no effect and ±100 for the full control effect; potency is read from the fitted curve at half-maximal effect. An excerpt. The share of hits here may be higher or lower than overall.
# The opening 2 entries, ahead of the listing:
Molecule,hNpr1 antagonist
O=C(Cc1ccc(F)cc1Cl)N1C[C@H]2CC[C@@H]1CN(Cc1cccnc1)C2,?
COc1cc2c(cc1OCC1CC1)NC(=O)C21CCN(Cc2ccncc2)CC1,4.4%[70.6 µM]

# The whole of this part, from the start:
Molecule,hNpr1 antagonist
O=C(Cc1ccc(F)cc1Cl)N1C[C@H]2CC[C@@H]1CN(Cc1cccnc1)C2,?
COc1cc2c(cc1OCC1CC1)NC(=O)C21CCN(Cc2ccncc2)CC1,4.4%[70.6 µM]
COc1cccc(CC(=O)N2CCCCCC2CN2CCC(OC)CC2)c1 (stereo not given),-9.4%
CN1CCNc2cc(Nc3ccc(F)c(Cl)c3)ncc2C1,?
COc1ccc2c(C)c(C(=O)N3CCC(C#N)(c4ccccc4)CC3)oc2c1,-18.3%
Cc1ccccc1-c1ccc2n(c1=O)C[C@H]1C[C@@H]2CN(C(=O)c2cncnc2)C1,4.9%[70.6 µM]
COc1ccc(-c2cc([C@H]3CN4CC[C@H]3C[C@@H]4CN)nc(C)n2)cc1OC,-5.9%[70.6 µM]
COc1ccccc1[C@H]1CN(C(=O)C2[C@H]3CNC[C@@H]23)[C@@H]2C3CCN(CC3)[C@H]12 (stereo not given in full),2.1%
Cc1ccc(C(=O)N2[C@H]3CC[C@@H]2c2cnc(C)nc2C3)c(C)c1,3.1%
Cc1cccc(NC(=O)N2[C@H]3CC[C@@H]2c2cncnc2C3)c1,0.9%
CS(=O)(=O)NC[C@H]1C[C@@H]2CCN1C[C@@H]2CN1CCCCC1,-1.1%[70.6 µM]
CN1C(=O)CO[C@H]2CN(Cc3ccccn3)C[C@H]21,1.9%[70.6 µM]

# The listing continues.
Molecule,hNpr1 antagonist
CSc1ccc(-c2ccc(=O)n3c2[C@@H]2C[C@@H](CN(S(=O)(=O)c4cccs4)C2)C3)cc1,-2.4%
CC(=O)NCCNC(=O)[C@H]1CN2CC[C@H]1C[C@@H]2Cn1cc(COc2ccccc2)nn1,0.4%[70.6 µM]
COc1cc2c(cc1Oc1ccccc1)NC(=O)C21CCN(Cc2cccc(O)c2)CC1,?
C=C[C@H]1CN2CC[C@H]1C[C@@H]2CNC(=O)c1ccc2ccccc2c1,0.9%[70.6 µM]
O=C(C1CCCCC1)N1[C@H]2CC[C@@H]1c1cnc(-c3ccc(F)cc3)nc1C2,6.31µM*
CSc1cccc(NC(=O)NC[C@H]2C[C@@H]3CCN2C[C@@H]3CN2CCN(c3ccccc3)CC2)c1,-1.5%
COc1cc2c(cc1CCc1ccccc1)N(C(=O)C(C)C)CC21CCN(C(C)=O)CC1,4.4%[70.6 µM]
Cc1ccc(C(=O)N2[C@H]3CC[C@@H]2c2cnc(-c4ccccc4)nc2C3)cn1,2.0%
O=C1OCC2(CCN(Cc3cccc(Cl)c3)C2)N1c1ccncc1 (stereo not given),-1.8%[70.6 µM]
C=CCN(C)C[C@H]1CN2CC[C@H]1C[C@@H]2CNC(=O)COC,-7.1%[70.6 µM]
Cn1nc(-c2cccs2)cc1[C@H]1CN2CC[C@H]1C[C@@H]2CNC(=O)C1CCCCC1,-2.0%[70.6 µM]
Cn1nc(C2CCCCC2)cc1[C@H]1CN2CC[C@H]1C[C@@H]2CNC(=O)Nc1ccccc1,3.2%[70.6 µM]

# Reprinted from the part before: 4 entries; new compounds follow.
Molecule,hNpr1 antagonist
O=C1OCC2(CCN(Cc3cccc(Cl)c3)C2)N1c1ccncc1 (stereo not given),-1.8%[70.6 µM]
C=CCN(C)C[C@H]1CN2CC[C@H]1C[C@@H]2CNC(=O)COC,-7.1%[70.6 µM]
Cn1nc(-c2cccs2)cc1[C@H]1CN2CC[C@H]1C[C@@H]2CNC(=O)C1CCCCC1,-2.0%[70.6 µM]
Cn1nc(C2CCCCC2)cc1[C@H]1CN2CC[C@H]1C[C@@H]2CNC(=O)Nc1ccccc1,3.2%[70.6 µM]
O=C(NCc1ccc(F)cc1)[C@H]1CN2CC[C@H]1C[C@@H]2Cn1cc(CC2CCCCC2)nn1,-1.0%
COCCC(=O)N1[C@H]2CC[C@@H]1c1cnc(-c3ccc(F)cc3)nc1C2,-19.1%
CCc1cccc(NC(=O)N2[C@H]3CC[C@@H]2c2cncnc2C3)c1,-3.7%
COc1cc2c(cc1OCC1CCCC1)N([S+](=O)([O-])c1cccc(C(F)(F)F)c1)CC21CCN(CC(=O)O)CC1,1.8%
O[C@H]1[C@H](NCc2ccccn2)[C@H]2CO[C@H](O2)[C@@H]1N1CCCC1,6.2%[70.6 µM]
O=C(Nc1ccccc1)N1[C@H]2CC[C@@H]1c1cncnc1C2,0.2%
CC(C)NC(=O)NC[C@H]1C[C@@H]2CCN1C[C@@H]2c1cc(C2CCCCC2)nn1C,1.3%[70.6 µM]
O=C(Cc1ccccc1)N1[C@H]2CC[C@@H]1c1cnc(-c3ccccc3)nc1C2,-0.4%
O=C(Cc1cccnc1)N1[C@H]2CC[C@@H]1c1cnc(-c3ccc(F)cc3)nc1C2,-14.5%
COc1ccccc1-c1cc([C@H]2CN3CC[C@H]2C[C@@H]3COC(=O)Nc2ccc(C(C)C)cc2)n(C)n1,-1.0%
C=C[C@H]1CN2CC[C@H]1C[C@@H]2CNC(=O)COCC(=O)O,3.2%[70.6 µM]
CCCS(=O)(=O)N1CC[C@@H]2COCCN(C)[C@@H]2C1,0.5%

# The listing continues:
Molecule,hNpr1 antagonist
CCCCc1cn(C[C@H]2CC3CCN2C[C@@H]3C(=O)NCc2ccco2)nn1 (stereo not given in full),-3.0%[70.6 µM]
C#CCN(C)C[C@H]1CN2CC[C@H]1C[C@@H]2CNC(=O)Nc1ccccc1,6.5%[70.6 µM]
CC(=O)Nc1ccc(S(=O)(=O)NC[C@H]2C[C@@H]3CCN2C[C@@H]3c2cc(-c3ccccc3Br)nc(C)n2)cc1,3.7%
Cc1ncc2c(n1)C[C@@H]1CC[C@H]2N1C(=O)NC1CCCC1,5.7%
Cc1nc(-c2ccccc2Br)cc([C@H]2CN3CC[C@H]2C[C@@H]3CNC(=O)c2ccco2)n1,10.1%
CN(Cc1ccccc1)Cc1cn(C[C@H]2C[C@@H]3CCN2C[C@@H]3C(=O)N2CCOCC2)nn1,5.5%
Cc1cccc(OCC(=O)N2CCC3(CC2)c2nccn2-c2ccccc2CN3C)c1,-0.9%
CSc1ccc(-c2ccc(=O)n3c2[C@@H]2C[C@@H](CN(C(=O)Nc4cccc(F)c4)C2)C3)cc1,-13.0%
CN(C)[C@@H]1CN(C(=O)Cc2ccccc2F)C[C@H]1CO,-8.6%
Cc1cccc(OCC(=O)N2[C@H]3CC[C@@H]2c2cnc(-c4ccc(F)cc4)nc2C3)c1,?
O[C@H]1COCCN(C2CCOCC2)C1,3.1%[122 µM]
O=C(NCc1ccc(F)cc1)[C@H]1CN2CCC1C[C@@H]2Cn1cc(-c2ccccn2)nn1 (stereo not given in full),5.6%[70.6 µM]

# Later entries:
Molecule,hNpr1 antagonist
O=[S+]1([O-])NC2(CCN(Cc3ccccn3)C2)CNc2ccccc21 (stereo not given),13.6%
c1ccc(CN2C[C@H](c3ccc4c(c3)OCO4)[C@@H]3[C@H]2C2CCN3CC2)nc1,4.2%
C=C[C@H]1CN2CC[C@H]1C[C@@H]2CNC(=O)C(N)=O,4.8%[70.6 µM]
CN1CCC2(CC1)CNCc1ccccc1O2,-10.9%
O=C(C1CCC1)N1[C@H]2CC[C@@H]1c1cnc(-c3ccccc3)nc1C2,?
CC[C@H]1CN2CC[C@H]1C[C@@H]2CNC(=O)NC(C)C,4.8%[70.6 µM]
Cc1cc(C)n(CCC(=O)N2[C@H]3CC[C@@H]2c2cnc(-c4ccc(F)cc4)nc2C3)n1,8.2%
CN1CCC(N(C)CCC2CCOCC2)CC1,4.2%
COc1ccc(C(=O)N2[C@H]3CC[C@@H]2c2cnc(C)nc2C3)cc1F,2.5%
O=C(NC1CC1)[C@H]1CN2CCC1C[C@@H]2Cn1cc(CC2CCCCC2)nn1 (stereo not given in full),3.2%[70.6 µM]
CC(C)NC(=O)N1[C@H]2CC[C@@H]1c1cnc(-c3ccc(F)cc3)nc1C2,-19.1%
CC1=NOC2(CCN(Cc3cncs3)C2)C1 (stereo not given),-3.6%[70.6 µM]

# Remaining list, next part:
Molecule,hNpr1 antagonist
COc1ccc2c(c1)C1(CCN(C(=O)c3cccc(C)c3)C1)C(=O)N2C (stereo not given),-3.7%
Cc1ncc2c(n1)C[C@@H]1CC[C@H]2N1S(=O)(=O)c1ccccc1C,2.9%
O=C(NC[C@H]1C[C@@H]2CCN1C[C@@H]2CN1CCCCC1)Nc1ccccc1,3.8%[70.6 µM]
Cc1ccc(CN2CCC3(CCNCC3)C2)c(O)c1,-2.3%
O=C(Nc1ccccc1)[C@H]1CN2CCC1C[C@@H]2Cn1cc(CSc2ccccc2)nn1 (stereo not given in full),2.3%[70.6 µM]
O=C(Nc1ccccc1F)N1[C@H]2CC[C@@H]1c1cncnc1C2,1.2%
Cn1nc(-c2ccccc2)cc1[C@H]1CN2CC[C@H]1C[C@@H]2CNS(=O)(=O)Cc1ccccc1,5.7%
CN1Cc2ccccc2-n2ccnc2C12CCN(C(=O)c1ccc(C(F)(F)F)cc1)CC2,-8.1%
O=C(C1CC1)N1C[C@H]2CN(Cc3cccnc3)C[C@@]2(C(=O)O)C1,-1.4%
O=C(CCc1c[nH]c2ccccc12)N1[C@H]2CC[C@@H]1c1cnc(-c3ccc(F)cc3)nc1C2,2.7%
Cc1ccccc1-c1cnc2[nH]cc(CC(=O)N3CCN(C)CC3)c2c1,1.7%[70.6 µM]
CN1CCN(C(=O)Cc2cccn2-c2ccc(Cl)cc2)CC1,4.6%

# (next part)
Molecule,hNpr1 antagonist
Cc1ncc2c(n1)C[C@@H]1CC[C@H]2N1C(=O)Nc1ccc(F)cc1F,12.7%
COc1cc2c(cc1-c1cccc(NC(C)=O)c1)NC(=O)C21CCN(C(C)=O)CC1,-3.0%[70.6 µM]
CN1CCC(N2C[C@@H]3C[C@H](C2)c2c(NC(=O)NC4CCCCC4)ccc(=O)n2C3)CC1,-1.2%[70.6 µM]
CN1c2cccnc2CNCC[C@H]1CO,1.2%[122 µM]
O=C1NC2(CCCN(Cc3ccccn3)C2)COc2ccccc21 (stereo not given),?
O=C(NC[C@H]1C[C@@H]2CCN1C[C@@H]2CN1C[C@@H]2C[C@H](C1)c1cccc(=O)n1C2)Nc1ccccc1,0.4%
COc1ccccc1-c1cc([C@H]2CN3CC[C@H]2C[C@@H]3COC(=O)Nc2ccc(C(C)(C)C)cc2)n(C)n1,-1.8%
Cn1cc(C(=O)N2CC[C@@](C)(O)[C@@H](O)C2)c2ccccc21,2.4%
COc1ccc(-c2cn(C[C@H]3CC4CCN3C[C@@H]4C(=O)NCc3ccc4c(c3)OCO4)nn2)cc1 (stereo not given in full),-0.1%
COc1cccc(CC(=O)N2[C@H]3CC[C@@H]2c2cnc(-c4ccccc4)nc2C3)c1,2.0%
CCCNC(=O)OC[C@H]1C[C@@H]2CCN1C[C@@H]2c1cc(C(CC)CC)nc(-c2ccncc2)n1,?
COc1ccc(OC)c(S(=O)(=O)NC[C@H]2C[C@@H]3CCN2C[C@@H]3c2cc(-c3ccc(F)cc3)nn2C)c1,-19.8%

# (further entries)
Molecule,hNpr1 antagonist
COc1ccc([C@H]2C[C@@H](O)[C@@H](O)[C@@H]2NCC2CCCC2)cc1,?
CC(C(N)=O)N1CCC2(CC1)C(=O)N(C)c1ccccc12 (stereo not given),18.1%
O=C(Nc1nccs1)[C@H]1CN2CCC1C[C@@H]2Cn1cc(CC2CCCCC2)nn1 (stereo not given in full),-0.4%[70.6 µM]
O=C(C1CCCCC1)N1C[C@@H]2C[C@H](C1)c1c(-c3cccs3)ccc(=O)n1C2,2.4%[70.6 µM]
O=C1Nc2ccccc2CC12CCN2Cc1ccncc1 (stereo not given),0.3%[70.6 µM]
COCC1CN(C)CC12CCN(Cc1cccc(OC)n1)CC2 (stereo not given),-0.3%
Cn1nc(C2CCCC2)cc1[C@H]1CN2CC[C@H]1C[C@@H]2CNC(=O)c1ccc2c(c1)OCO2,-0.4%
Cc1nc(-c2ccccc2)cc([C@H]2CN3CC[C@H]2C[C@@H]3CNC(=O)c2cccs2)n1,-3.0%[70.6 µM]
CCC(=O)N1CCC2(CC1)c1nccn1-c1ccccc1CN2CC(C)C,-0.1%
C=C[C@H]1CN2CC[C@H]1C[C@@H]2CNC(=O)c1ccco1,0.8%[70.6 µM]
Cc1ccc(C(=O)N2CCC3(CC2)c2nccn2-c2ccccc2CN3C)s1,-13.0%
CN(C)C(=O)N1CCC2(CC1)NCc1ccccc1-n1ccnc12,3.0%

# Further structures follow.
Molecule,hNpr1 antagonist
Cc1cnc(C2CCC2)n1C1CCNCC1,0.1%
COc1ccccc1N1CCN(C[C@H]2CN3CC[C@H]2C[C@@H]3CNC(=O)Nc2ccsc2)CC1,2.0%
CC(=O)Nc1ccc(S(=O)(=O)NC[C@H]2C[C@@H]3CCN2C[C@@H]3c2cc(C3CCCC3)nn2C)cc1,4.9%
CN(Cc1ccccc1)C[C@H]1CN2CC[C@H]1C[C@@H]2CNC(=O)Nc1ccccc1,4.9%[70.6 µM]
Nc1cccc(-c2cn(C[C@H]3CC4CCN3C[C@@H]4C(=O)NC3CC3)nn2)c1 (stereo not given in full),-3.3%[70.6 µM]
Cc1cccn2c(CC(=O)N3CCN(C)[C@@H]4CS(=O)(=O)C[C@@H]43)cnc12,0.5%
COc1cc2c(cc1OCc1ccccc1)N(C(=O)c1ccncc1)CC21CCN(C)CC1,1.4%
